Sa growth 42C: S. aureus growth inhibition at 42 and 30 °C, primary screen, LtaS inhibitor project, RN4220, two temperatures | OD600, 20 h, 42 °C; active compounds read low | hit rate 0.53% among 170,000 | relative growth, % (concentration not given with the values);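 active = growth at 42 °C up to 50% and 20 or more points under that at 30 °C, or under 10% at both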;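 also: 300 nL library stock went into each well; scaled to the means of positive and negative controls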
GIV-Gai inh: inhibitors of GIV peptide binding to Galpha-i3, primary screen, biochemical, fluorescence polarization, FITC-GIV GBA peptide, rat Galphai3; 90 min; active compounds read low; scaled: aluminum fluoride 0%, vehicle 100%; Guanine nucleotide-binding protein G(i) subunit alpha-3 (Rattus norvegicus), P08753; percent of control (FP), % (no concentration beside the values); hit rate 0.42% among 210,000; AID 1224905, 2016;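 active = replicate mean at 85% of control or lower, very high polarization wells dropped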;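 also: wells of about 15 µL received 100 nL stock; the first replicate is given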
Target sequence (P08753 whole entry, looked up): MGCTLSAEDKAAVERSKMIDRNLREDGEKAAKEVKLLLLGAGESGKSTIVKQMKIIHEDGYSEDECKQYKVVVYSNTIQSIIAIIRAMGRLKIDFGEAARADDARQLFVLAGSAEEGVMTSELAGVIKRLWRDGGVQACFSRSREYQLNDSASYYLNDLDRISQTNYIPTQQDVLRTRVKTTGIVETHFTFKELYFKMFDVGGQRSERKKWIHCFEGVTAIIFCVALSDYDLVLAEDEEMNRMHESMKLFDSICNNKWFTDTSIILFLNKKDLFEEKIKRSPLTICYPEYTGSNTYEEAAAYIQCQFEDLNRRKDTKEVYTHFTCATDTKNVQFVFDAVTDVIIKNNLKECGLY
HCMV NEC inh: inhibitors of HCMV UL50-UL53 interaction, biochemical, HTRF; HCMV UL50-UL53 nuclear egress complex (human cytomegalovirus); normalized percent inhibition; inhibition, % (test concentration not listed); hit rate 0.15% among 190,000;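 active = both replicates at 50% or more, plus weaker picks with an unusually low signal ratio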;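 also: stock transfer was 100 nL into about 20 µL; 0% = negative control wells and 100% = wells with untagged competitor protein; inactives centre near -12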
Sa growth 42C second temp: second read-out of Sa growth 42C, no call of its own (marks repeat the call); relative growth, %; measured here: growth at 30 °C;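 optical density after 20 h as mean of two plates; 100% = untreated growth and lower means inhibition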
* hit, by the source's call; . = not tested or not shown; & = joins results of further samples. No enrichment for hits. Share with any hit: about 0.83%.

SMILES	Sa growth 42C	Sa growth 42C second temp	GIV-Gai inh	HCMV NEC inh
Cc1[nH]oc(=O)c1C=Nc1ccccc1	91	90	106	-3
CCN1CCN(CCCNC(=O)c2n[nH]c(=O)c3ccccc23)CC1	101	97	103	.
CCN(C(=O)CCN1C(=O)c2ccccc2C1=O)c1ccccc1	98	81	108	-24
CCc1cccc(C)c1NC(=O)Cn1c(=O)n(-c2ccc(C)cc2)c(=O)c2c1cnn2C	99	97	98	-60
Cc1cc(NS(=O)(=O)c2ccc(N=Cc3ccccc3O)cc2)no1	33	28	103	.
COC(=O)COc1ccc2c(c1)C(=NO)c1cc(OCC(=O)OC)ccc1-2	98	88	99	.
O=C(NCc1ccc(F)cc1)C1CCN(S(=O)(=O)c2ccc3c(c2)CCCN3C(=O)C2CCC2)CC1	103	85	107	.
CCCn1c(C)ccc(-c2noc(CCCC(=O)N3CCN(c4ccccc4F)CC3)n2)c1=O	.	.	104	-27
Cn1nccc1NC(=S)Nc1ccc(Cl)cc1	94	89	104	-2
CCOc1ncccc1C(=O)OCc1cc(C(=O)OC)c(C)o1	96	98	.	-15
COc1cc(OC)c(NC(=O)C2CC(=O)N(c3cccc(-c4noc(C)n4)c3)C2)cc1Cl (stereo not given)	.	.	101	-25
Cc1csc2nc(-c3ccccc3)cn12	112	67	.	-19
COc1cccc(-c2noc(-c3cc4ccccc4oc3=O)n2)c1OC	109	83	100	.
CCNCC(=O)Nc1ccc(Br)cc1	94	99	.	4
CC(C)OCCCNC(=O)c1ccc(-n2c(-c3ccccc3)cc3c2CCCC3)cc1	115	100	103	3
COc1ccc(/C=C2/SC(=S)N(CC(=O)O)C2=O)cc1OCc1ccc(Cl)cc1Cl	.	.	99	-5
Cc1cccc(C)c1NC(=O)C1(N2CCN(C(=O)c3ccco3)CC2)CCCCC1	98	80	102	-13
O=S(=O)(c1ccc2nc(Nc3ccccc3F)ccc2c1)N1CCCCC1	.	.	101	-13
CCc1ccccc1Nc1cc(C(=O)NCCCN(C)C2CCCCC2)c2ccccc2n1	108	83	103	-11
O=C(CCC1COc2ccccc2O1)Nc1ccccn1 (stereo not given)	111	94	102	-9

Compounds from the list above with an aryl methoxy group:
SMILES	Sa growth 42C	Sa growth 42C second temp	GIV-Gai inh	HCMV NEC inh
COc1cc(OC)c(NC(=O)C2CC(=O)N(c3cccc(-c4noc(C)n4)c3)C2)cc1Cl (stereo not given)	.	.	101	-25
COc1cccc(-c2noc(-c3cc4ccccc4oc3=O)n2)c1OC	109	83	100	.
COc1ccc(/C=C2/SC(=S)N(CC(=O)O)C2=O)cc1OCc1ccc(Cl)cc1Cl	.	.	99	-5

Laid out differently: results already given
compound: O=S(=O)(c1ccc2nc(Nc3ccccc3F)ccc2c1)N1CCCCC1
- Sa growth 42C = .
- Sa growth 42C second temp = .
- GIV-Gai inh = 101
- HCMV NEC inh = -13
compound: COC(=O)COc1ccc2c(c1)C(=NO)c1cc(OCC(=O)OC)ccc1-2
- Sa growth 42C = 98
- Sa growth 42C second temp = 88
- GIV-Gai inh = 99
- HCMV NEC inh = .

(list continues)
SMILES	Sa growth 42C	Sa growth 42C second temp	GIV-Gai inh	HCMV NEC inh
CCOC(=O)c1c(NC(=O)c2cc(OC)c(OC)c(OC)c2)sc(C(=O)Nc2ccc(C)c(Cl)c2)c1C	.	.	100	-5
COc1ccc(-n2nnc3c(SCC(=O)Nc4cccc(C(F)(F)F)c4)ncnc32)cc1	111	100	112	.
CC1CCN(C(=O)c2cnn(-c3cccc(Cl)c3)c2C2CCN(C(=O)OC(C)(C)C)CC2)CC1	93	92	98	.
COc1cc(NC(=O)CC2NC3CCCCC3NC2=O)cc(OC)c1 (stereo not given)	92	81	106	-34
COc1ccc(CN2C(=O)CC(C(N)=O)SC2=Nc2ccccc2)cc1 (stereo not given)	87	88	.	1
COC(=O)CC1=CC(SCc2c(F)cccc2Cl)=Nc2ccccc2N1	.	.	107	-40
Cc1ccc(CN2C(=O)SC(Nc3ccccc3)C2=O)cc1 (stereo not given)	105	88	103	-4
O=C(Nc1ccccc1)c1csc(C2COc3ccccc3O2)n1 (stereo not given)	80	70	97	-12
O=C(Nc1ccc2c(c1)OCCO2)C1CCN(C(=O)c2ccc(-c3noc(C4CC4)n3)cc2)CC1	.	.	105	-16
CCOC(=O)c1cc(S(=O)(=O)Nc2ccc(Br)c(C)c2)[nH]n1	56	68	101	.
Cc1nc(N2CCCC2)c2c(C(=O)Nc3cccc(Cl)c3)c(C)oc2n1	103	93	105	.
CCOc1ccc(C2C(=O)N(C3CCCCC3)CC(=O)N2CCc2ccccc2)cc1OC (stereo not given)	90	97	105	.
Cc1ccc2c(c1)N(CC(=O)NC(C)(C)C)C(=O)C(C)O2 (stereo not given)	102	94	103	2
CC(=O)c1ccc(N2C(=O)N(CC(=O)c3ccc(F)cc3)c3ccccc3S2(=O)=O)cc1	102	107	106	.
COc1ccc(S(=O)(=O)NCc2cccn2Cc2cccc(C)c2)cc1OC	107	87	104	.
O=C(NCc1ccccn1)c1cccnc1SCCS(=O)(=O)c1cccc(C(F)(F)F)c1	92	90	96	-8
Cn1c2c(c(=O)n(C)c1=O)CN(CCc1ccccc1)CN2	.	.	101	-33
CCc1ccccc1NC(=O)c1cc(C)no1	109	90	96	-3
O=C(c1ccc2c(c1)CCCC2)N1CCN(c2nc3c(F)cccc3s2)CC1	110	96	103	.
Cc1ccc(SCCC(=O)O)cc1C	110	98	.	-14
CCC(C(=O)Nc1cc(C)ccc1C)n1nnc(C(=O)O)c1C(=O)O (stereo not given)	73	95	103	.
Cc1ccc(C(=O)NCC(=O)OCc2cc(=O)n3nc(C4CCCCC4)sc3n2)cc1	99	90	101	.
Cc1ccc(-n2ncc3c(=O)n(CC(=O)N(C)C)cnc32)cc1	115	89	97	3
Cc1ccc(-c2csc(-n3[nH]c(C)c(CCC(=O)NC(C)C)c3=O)n2)cc1	.	.	101	-18
COc1ccc(Cl)cc1S(=O)(=O)n1ccnc1	102	111	91&101	6&-16
COc1ccc(N2C(=O)CC(SC(N)=Nc3ccccc3)C2=O)cc1 (stereo not given)	90	95	.	-6
Cc1cccc(-c2c3c(=O)n(C)c(=O)n(C)c3c3n2C(C)(C)COC3c2coc3ccccc3c2=O)c1 (stereo not given)	.	.	96	17
Cc1noc(C(F)(F)F)c1-c1nc(-c2cccc(C(F)(F)F)c2)no1	113	102	104	-1
CC(C)OC(=O)c1sc2nc3c(cc2c1N)CN(Cc1ccccc1)CC3	.	.	103	-14
COc1ccc(-c2cn[nH]c2N)cc1OC	122	94	106	-1
CCOC(=O)c1cnn(-c2ccccc2)c1NC(=O)Nc1cccc(Cl)c1	87	74	98	-22
Cc1cccc(NC(=O)CSC2=Nc3ccccc3C3=NC(CCC(=O)NCc4ccc(F)cc4)C(=O)N23)c1 (stereo not given)	90	88	103	-13
CSc1nnc(SC)n1CCNS(=O)(=O)c1cccc(Cl)c1	101	83	103	-15
COc1ccc(CCNC(=O)C2CCCNC2=O)cc1OC (stereo not given)	83	89	103	-13
O=C1COc2ccc(NC(=O)c3ccc(F)cc3)cc2N1	.	.	105	-5
CCCS(=O)(=O)N1CCCC(C(=O)N2CCN(c3ccccc3)CC2)C1 (stereo not given)	112	91	109	.
O=C(c1cccc(Cl)c1)N1CCN(S(=O)(=O)c2ccc(Cl)s2)CC1	134	97	.	-10
CCCn1c(=O)c2c(nc3n2CCN3c2ccc(OC)cc2)n(C)c1=O	.	.	101	4
NC(=O)c1ccccc1NC(=O)C1CCCN(c2ncnc3onc(-c4ccc(F)cc4)c23)C1 (stereo not given)	87	89	106	.
COc1cccc(C(=O)CC#N)c1	96	90	.	-20
Cc1ccc(C)c(S(=O)(=O)N/N=C/c2ccc(N(C)C)cc2)c1	112	95	.	-29
CCC(CC)NS(=O)(=O)c1cccs1	114	97	105	-34
O=C(COCc1cc(-c2ccc(F)cc2)on1)NCc1cccs1	99	93	103	.
Cc1ccc(S(=O)(=O)NCCSc2cc(C(F)(F)F)nc3ccccc23)cc1	84	51	113	-13
Cc1c(CNC2CCCCC2)c(C(=O)O)c(C)n1Cc1ccc(F)cc1	104	92	104	-20
CCOc1ccc(-c2nn(CC(=O)NC3CCCCC3)c3c2cnc2ccc(C)cc23)cc1	113	91	99	.
Cc1ccc(C)c(OC(=O)c2ccc(N3CCCC3=O)cc2)c1C	94	96	.	-16
Cc1ccc(-c2noc(-c3cccnc3NC3CCCC3)n2)cc1	.	.	103	-11
Cc1ccc(-n2nc3ccc(N)cc3n2)cc1	100	85	97	-29
COC(=O)C1=C(C)NC2=C(C(=O)CC(c3ccc(OC)cc3)C2)C1c1cccc2ccccc12 (stereo not given)	110	96	.	-2
CCc1ccc(NC(=O)CC(C)S(=O)(=O)c2ccc3c(c2)CCN3C(C)=O)cc1 (stereo not given)	90	85	106	-28
O=c1c2c3c(sc2n2cnnc2n1Cc1ccccc1)CCCC3	82	68	109	2
COc1ccc(N2C(=O)/C(=C/c3cc(OC)c(O)c(OC)c3)C(=O)NC2=S)cc1	.	.	166	0
CS(=O)(=O)N1Cc2ccccc2CC1C(=O)Nc1cc(Cl)ccc1N1CCOCC1 (stereo not given)	115	92	.	-18
Clc1ccc2c(N3CCCC3)ccnc2c1	114	69	105	-16
COc1ccc(Cl)cc1NC(=O)CCS(=O)(=O)c1cccc2nonc12	118	100	113	-58
CN(C(=O)CSc1nc(N)nc(N)n1)C1CCCc2ccccc21 (stereo not given)	89	96	.	-21
COc1ccc(N(C)C(=O)c2cc3c(s2)-c2c(C)cccc2OC3)c(OC)c1	93	71	106	-20
CC(C)(C)c1ccc(C(=O)N2CCC(NC(=O)C3CCCCC3)CC2)cc1	103	86	108	-8
Cc1nnc(SCCc2ccccc2)[nH]c1=O	102	103	99	-3

4 entries already listed, arranged by the value under GIV-Gai inh, low to high.
molecule,GIV-Gai inh
CCOC(=O)c1cnn(-c2ccccc2)c1NC(=O)Nc1cccc(Cl)c1,98
CCCn1c(=O)c2c(nc3n2CCN3c2ccc(OC)cc2)n(C)c1=O,101
CCN(C(=O)CCN1C(=O)c2ccccc2C1=O)c1ccccc1,108
O=c1c2c3c(sc2n2cnnc2n1Cc1ccccc1)CCCC3,109

Only Sa growth 42C, for four of the compounds above:
compound | Sa growth 42C
Cc1ccc(C)c(OC(=O)c2ccc(N3CCCC3=O)cc2)c1C | 94
CS(=O)(=O)N1Cc2ccccc2CC1C(=O)Nc1cc(Cl)ccc1N1CCOCC1 (stereo not given) | 115
O=c1c2c3c(sc2n2cnnc2n1Cc1ccccc1)CCCC3 | 82
CCC(CC)NS(=O)(=O)c1cccs1 | 114

Following part.
SMILES	Sa growth 42C	Sa growth 42C second temp	GIV-Gai inh	HCMV NEC inh
CCCn1c(=N)c(C(=O)NCc2ccccc2)cc2c(=O)n3cccc(C)c3nc21	113	84	104	.
Cn1c(SCc2ccc(F)cc2)nnc1C1COc2ccccc2O1 (stereo not given)	103	98	103	13
CC(N/C=C1\C(=O)C2(C)CCC1C2(C)C)c1ccccc1 (stereo not given)	103	105	97	-9
CCN(CC)c1ccc(C(=O)NCc2ccc3c(c2)CCN3C(=O)c2ccccc2)cc1	124	92	101	.
N#CC(C(=O)c1ccccc1)=C1SCCS1	103	87	96	-45
CN(C(=O)c1cc2c(=O)n3ccccc3nc2s1)c1ccccc1	.	.	103	-14
O=C(CSc1nnc(-c2ccccc2)n1Cc1ccccc1)c1cccs1	86	83	102	-1
COCC(C)Nc1nc(-c2ccc(OC)cc2OC)cs1 (stereo not given)	90	86	.	-30
CCOc1ccc(CNC(=O)c2cc3ccccn3n2)cc1	87	90	105	.
Cc1ccc2c(c1)N(CCCC(=O)N1CCCCC1)C(=O)CO2	110	86	109	.
O=C(CSc1ccccc1C(=O)N1CCN(c2ncccn2)CC1)NC12CC3CC(CC(C3)C1)C2	88	88	.	-23
O=C(Cn1cncn1)N/N=C/c1cc(Br)ccc1O	96	65	.	-74
N#C/C=C\Oc1ccc(Cl)cc1N	95	77	105	-27
Cc1ccc(-c2nc(CSc3nc(C(F)(F)F)cc(=O)[nH]3)c(C)o2)cc1	.	.	107	4
COC(=O)c1ccc(CSc2nc(-c3cccs3)cc(C(F)(F)F)n2)cc1	108	89	108	.

Screening results from PubChem.
